AmpC inh no det: inhibitors of E. coli AmpC beta-lactamase without detergent | AmpC nitrocefin hydrolysis, absorbance 480 nm, no detergent; potencies from a single point are estimates | Potency, µM (doses to about 28.7 µM), for the others: top-dose activity change, negative = inhibition | actives 1.8% (n = 71,000) | AID 585; active = falling curve, for most hits resting on a single point; inconclusive = weak or doubtful change; inactive = flat or rising curve; further: % of control where 0% means no effect; about half of the hits show no inhibition at the top dose; a quarter of the inactives give rising signals
Target sequence (P00811 whole entry, looked up): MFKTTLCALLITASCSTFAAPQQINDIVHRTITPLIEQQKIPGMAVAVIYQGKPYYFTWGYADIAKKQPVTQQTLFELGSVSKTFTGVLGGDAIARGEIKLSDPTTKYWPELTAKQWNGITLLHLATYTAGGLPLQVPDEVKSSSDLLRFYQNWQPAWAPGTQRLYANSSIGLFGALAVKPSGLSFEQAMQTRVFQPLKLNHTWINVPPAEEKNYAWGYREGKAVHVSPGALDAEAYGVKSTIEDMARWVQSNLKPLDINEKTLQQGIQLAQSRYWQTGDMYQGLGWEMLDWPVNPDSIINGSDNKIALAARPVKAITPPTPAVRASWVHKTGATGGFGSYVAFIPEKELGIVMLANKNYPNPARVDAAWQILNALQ
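AmpC, 20 mM phosphate pH 7.0; 15 min cpd preinc, RT; start with nitrocefin (800 uM stock); A480 kinetic read, 20 s intervals, 4 min. No-enzyme wells = negative control.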
Starred values were filed as active, the others as inactive; ? = inconclusive; & = joins results of further samples; [ ] = another dose, or the depositor's remark. Potency means the concentration at half of the fitted maximal effect. Only part of the results is shown; count on the stated rates, not on these rows.

SMILES	AmpC inh no det
COc1ccc(Nc2ncc3nc(-c4cccs4)c(=O)n(Cc4cccc(OC)c4)c3n2)cc1	-3%
CC(C)C(NC(=O)C1CCCCC1)C(=O)NCc1ccccn1 (centres undefined)	-8%
N/N=C1/c2ccccc2N[C@H]1OC(=O)Nc1cccc(Cl)c1	-4%[5.75 µM]
CSc1nc(NCC(C)C)nc(N2CCOCC2)n1	13%
C/C(N)=C(/C#N)C(=O)COc1ncnc2ccc(Br)cc12	-5%
COc1ccccc1N1C(=O)C2C3C=CC(C3)C2C1=O (centres undefined)	3%
CN(C)S(=O)(=O)N(CCN1CCOCC1)Cc1ccccc1F	10%
COc1cc2c(cc1C(F)(F)F)N(C(=O)Nc1cc(F)cc(-c3cccnc3)c1)CC2	53%&95%
O=C(Cn1nc(-c2ccccc2)nc1-c1ccccc1)N1CCOCC1	8%
O=C(NC1CCN(Cc2ccccc2)CC1)c1ccccc1F	-2%
Cc1oc(-c2ccc(Cl)cc2)nc1CN1CCC(C(=O)NCCCN2CCCC2=O)CC1	93%
O=C(NCCCN1CCCC1)C1CCN(C(=O)c2cc3sccc3n2Cc2ccc(F)cc2)CC1	139%
CN(C)CCCNS(=O)(=O)c1cc(Cl)ccc1Cl	10%
COc1cc(CNC2CCCCCC2)cc(OC)c1OC	-7%
COc1ccc(C2C(C(C)=O)=C(O)C(=O)N2CCO)c(OC)c1 (centres undefined)	-3%
CC(C)C1CC(O)(C2(O)CCCCC2)ON1 (centres undefined)	3%
CCN1CCCC1CNC(=O)c1cc(NC(C)=O)c(N(C)C)cc1OC (centres undefined)	-6%
Cc1ccc(C)c(NC(=O)C2CCCN2C(=O)OC(C)(C)C)c1 (centres undefined)	17%
CNc1ccccc1	-5%
CCOC(=O)C1=C(N)OC2=C(C(=O)CCC2)C12C(=O)Nc1ccccc12 (centres undefined)	14%
Cc1occc1-c1nnc(SCC(=O)NCc2ccc3c(c2)OCO3)n1CC(C)C	19%
CC(C)[C@@H](CC(=O)N[C@@H]1CCCC[C@H]1C(=O)N[C@H](CC(=O)N[C@@H](CCC(=O)O)CC(=O)O)Cc1c[nH]c2ccccc12)NC(=O)C[C@H](CO)NC(=O)[C@@H]1CCCC[C@H]1N	117%
CCCC(=O)Nc1ccc(Cl)c(NC(=O)c2ccco2)c1	4%
COc1cc2c(cc1OC)CN(C(=O)CSc1nc3[nH]ncc3c(=O)n1-c1ccccc1)CC2	120%
COc1cccc(CN2CCN(c3ncccn3)CC2)c1	-1%
CNC1=C(Cl)C(=O)c2ccncc2C1=O	12%
CN(C)c1ccc(-c2ccc3ncnc(NCc4ccccc4)c3c2)cc1	16%
NC(=O)C1CCN(C(=O)c2cc3ccccn3n2)CC1	-4%
Cc1ccc(C(=O)c2cc3c(cc2N)OCCO3)cc1	0%
O=C(Nc1cc(Cl)ccc1O)c1cc2n(n1)C(C(F)(F)F)CC(c1ccc3c(c1)OCO3)N2 (centres undefined)	7.9µM*
Cc1nn(-c2ccccc2)c(C)c1C(=O)OCC(=O)c1c(N)n(CC(C)C)c(=O)n(C)c1=O	94%
Cc1ccc(-n2ncc3c(=O)n(CC(=O)Nc4cccc(Cl)c4)cnc32)cc1C	-22%
COc1cccc(CSc2nnc(-c3ccc(F)cc3)o2)c1	11%
Cc1cccc2cc(C(c3nnnn3CC3CCCO3)N3CCCC4(CCCCC4)C3)c(=O)[nH]c12 (centres undefined)	41%
Cc1nc2sc3c(c2c2nnc(SCC(=O)NCc4ccco4)n12)CCCC3	128%
CCCCC(=O)Nc1nnc(SCC(=O)N2CCN(c3ccccc3OC)CC2)s1	59%
COc1ccccc1-c1cncnc1NCCNC(C)=O	20%
CCC(C)(C)C(=O)O	-9%
O=C(c1ccco1)N1CCC2(CC1)CCN(c1ccncc1)CC2	56%
COCCNc1ccnc(-c2c(C)noc2C)n1	-3%
COc1ccccc1-c1nnc(NC(C)=O)s1	4%
Nc1cc(N)nc(SCC(=O)N2CCCCC2)n1	-5%
CCOc1ccccc1-n1cnc2cc(C(=O)NCc3ccco3)ccc21	7%
N#CCCN1CCN(C2=NC(=O)C(=C3CCCCC3)S2)CC1	11%
CCc1nnc(NC(=O)CN2C(=O)c3ccccc3C2=O)s1	5%
CN(C)CCn1c(C(=O)O)cc2ccccc21	-2%
O=C(Nc1nncs1)c1ccc(S(=O)(=O)c2ccccc2)cc1	-14%
Cn1c(C(=O)N2CCc3ccccc32)cc2c(=O)n3ccccc3nc21	2%
O=C(Cc1cccs1)NCc1ccccc1F	11%
CSc1nncc(-c2ccc(F)c(F)c2)n1	-9%
Cn1c(=O)c2c(nc(N3CCc4ccccc4C3)n2Cc2ccc(Br)cc2)n(C)c1=O	44%
COc1ccc(S(=O)(=O)N2CCCC2C(=O)Nc2ccc(C)cc2)cc1 (centres undefined)	14%
c1cncc(-c2nnc(-c3cccs3)o2)c1	-11%
CCOC(=O)C1=C(C)NC(=O)NC1c1ccccc1Cl (centres undefined)	-1%
COc1ccccc1/C=C/CN1CCOCC1	0%
CN(Cc1ccccc1)C(=O)CSc1nc2ccccc2c(=O)n1Cc1ccco1	29%
COc1ccc2c(c1OC)C(=O)OC2[C@H]1c2c(cc3c(c2OC)OCO3)CCN1C (some centres undefined)	36%
Cn1ncc(C#N)c1NC(=O)C1CC(c2c(F)cccc2Cl)=NO1 (centres undefined)	-2%
NC[C@H]1O[C@H](n2cnc3c(N)ncnc32)C[C@@H]1O	-2%[5.75 µM]
Cc1ccc(-c2[nH]nc3c2C(c2ccoc2)C(C#N)=C(N)O3)cc1C (centres undefined)	4%

Further records follow.
SMILES	AmpC inh no det
C=C(NC(=O)C(=C)NC(=O)c1csc(C2=N[C@@H]3c4csc(n4)[C@@H]4NC(=O)c5csc(n5)[C@@H]([C@](C)(O)[C@H](C)O)NC(=O)[C@@H]5CSC(=N5)/C(=C/C)NC(=O)[C@@H]([C@H](C)O)NC(=O)c5csc(n5)[C@]3(CC2)NC(=O)[C@@H](C)NC(=O)C(=C)NC(=O)[C@@H](C)NC(=O)[C@@H]([C@@H](C)CC)N[C@H]2C=Cc3c([C@H](C)O)cc(nc3[C@@H]2O)C(=O)O[C@H]4C)n1)C(N)=O	90%[12.8 µM]
CCCCC(=O)N=c1sc2cc(S(C)(=O)=O)ccc2n1C	15%
CC1=C(C#N)c2nc(N)c(C#N)c(C)c2/C1=C\c1ccccc1	2%
c1cc2c(nn1)CCc1nonc1-2	-2%
Cc1ccc2c(c1)N(CC(=O)NCC1COc3ccccc3O1)C(=O)CO2 (centres undefined)	49%
CCCCCCOc1ccc(/C(N)=N/O)cc1	7%
NC(=O)c1ccccc1NC(=O)CS(=O)(=O)Cc1ccccc1	2%
CC(C)Cn1c(N)c(C(=O)CSc2ccc3c(c2)OCCO3)c(=O)n(C)c1=O	-9%
CCOC(=O)c1c(C)n(C)c2c(C)cc(O)c(OC(C)=O)c12	9%
Cn1c(=O)c(=O)n(C)c2cc(S(=O)(=O)N3CCOCC3)ccc21	-16%
CCOC(=O)c1cnc(SCC)[nH]c1=O	-6%
O=C(NCCN1CCN(c2ccccc2)CC1)C1CCN(S(=O)(=O)N2CCOCC2)CC1	31%
Cc1ccc(CN(C)C(=O)C2CCCN2C(=O)c2cccs2)o1 (centres undefined)	26%
O=C(Nc1nc(-c2cc(Cl)sc2Cl)cs1)c1cccs1	0.32µM*
CCc1c(C)[nH]n(-c2ccc(Oc3ccccc3)c(S(=O)(=O)O)c2)c1=O	3%
C/C(=C\C(=O)c1ccccc1)Nc1cccc(O)c1	-8%
CC(=O)Nc1ccc(NC(=O)CN(C)CCC#N)cc1	6%
O=C(c1cnsn1)N1CCN(c2ccccn2)CC1	-10%
CCOC(=O)c1nn(-c2ccc(OC)cc2)c(=O)c2c(NC(=O)c3ccco3)scc12	18%
Cc1ccc(NC2=CC(=O)CC(C)(C)C2)c(N)c1	4%

22 neighbouring entries from above, quoted:
SMILES	AmpC inh no det
CN(Cc1ccccc1)C(=O)CSc1nc2ccccc2c(=O)n1Cc1ccco1	29%
COc1ccc2c(c1OC)C(=O)OC2[C@H]1c2c(cc3c(c2OC)OCO3)CCN1C (some centres undefined)	36%
Cn1ncc(C#N)c1NC(=O)C1CC(c2c(F)cccc2Cl)=NO1 (centres undefined)	-2%
NC[C@H]1O[C@H](n2cnc3c(N)ncnc32)C[C@@H]1O	-2%[5.75 µM]
Cc1ccc(-c2[nH]nc3c2C(c2ccoc2)C(C#N)=C(N)O3)cc1C (centres undefined)	4%
C=C(NC(=O)C(=C)NC(=O)c1csc(C2=N[C@@H]3c4csc(n4)[C@@H]4NC(=O)c5csc(n5)[C@@H]([C@](C)(O)[C@H](C)O)NC(=O)[C@@H]5CSC(=N5)/C(=C/C)NC(=O)[C@@H]([C@H](C)O)NC(=O)c5csc(n5)[C@]3(CC2)NC(=O)[C@@H](C)NC(=O)C(=C)NC(=O)[C@@H](C)NC(=O)[C@@H]([C@@H](C)CC)N[C@H]2C=Cc3c([C@H](C)O)cc(nc3[C@@H]2O)C(=O)O[C@H]4C)n1)C(N)=O	90%[12.8 µM]
CCCCC(=O)N=c1sc2cc(S(C)(=O)=O)ccc2n1C	15%
CC1=C(C#N)c2nc(N)c(C#N)c(C)c2/C1=C\c1ccccc1	2%
c1cc2c(nn1)CCc1nonc1-2	-2%
Cc1ccc2c(c1)N(CC(=O)NCC1COc3ccccc3O1)C(=O)CO2 (centres undefined)	49%
CCCCCCOc1ccc(/C(N)=N/O)cc1	7%
NC(=O)c1ccccc1NC(=O)CS(=O)(=O)Cc1ccccc1	2%
CC(C)Cn1c(N)c(C(=O)CSc2ccc3c(c2)OCCO3)c(=O)n(C)c1=O	-9%
CCOC(=O)c1c(C)n(C)c2c(C)cc(O)c(OC(C)=O)c12	9%
Cn1c(=O)c(=O)n(C)c2cc(S(=O)(=O)N3CCOCC3)ccc21	-16%
CCOC(=O)c1cnc(SCC)[nH]c1=O	-6%
O=C(NCCN1CCN(c2ccccc2)CC1)C1CCN(S(=O)(=O)N2CCOCC2)CC1	31%
Cc1ccc(CN(C)C(=O)C2CCCN2C(=O)c2cccs2)o1 (centres undefined)	26%
O=C(Nc1nc(-c2cc(Cl)sc2Cl)cs1)c1cccs1	0.32µM*
CCc1c(C)[nH]n(-c2ccc(Oc3ccccc3)c(S(=O)(=O)O)c2)c1=O	3%
C/C(=C\C(=O)c1ccccc1)Nc1cccc(O)c1	-8%
CC(=O)Nc1ccc(NC(=O)CN(C)CCC#N)cc1	6%

(listing goes on)
SMILES	AmpC inh no det
O=C(Nc1cccc(F)c1)N1CC2(CCN(C(=O)c3cccc(F)c3)CC2)C1	32%
COc1cccc(OC)c1C(=O)N1CCN(Cc2ccncc2)CC1	0%
COc1cc(C(=S)N2CCCC2)cc(Cl)c1O	-4%
CCOC(=O)C1CCN(C(=O)CC(C)c2ccccc2)CC1 (centres undefined)	24%
NC1(C(=O)O)CCC1	32%
COc1nc(OC)nc(N2CCC(C(=O)NC3CCCCCC3)CC2)n1	18%
Cc1cc(NC(=O)CSC2=Nc3ccccc3C3=NC(Cc4ccccc4)C(=O)N23)n[nH]1 (centres undefined)	9%
CC(C)(C)C1CCc2onc(C(=O)N3CCOCC3)c2C1 (centres undefined)	33%
COc1nc(-c2ccc(Cl)cc2)ccc1-c1noc(-c2ccncc2)n1	8%
O=c1oc2ccccc2c(O)c1/C=N/c1ccccn1	-8%
COCCn1c(=O)c(-c2ccc(OC)cc2)nc2cnc(OCc3ccccc3)nc21	5%
COc1ccccc1Cn1c(=S)[nH]c2cc(C(=O)N3CCN(C)CC3)ccc2c1=O	103%
CCC1CCCCN1C(=O)CSc1nc(N)c(NC(=O)c2ccco2)c(=O)[nH]1 (centres undefined)	-1%
O=C(NCc1ccc(F)cc1)C1CCN(C(=O)NCc2ccccc2)CC1	13%
COCCn1nnnc1C(c1cccc(C#N)c1)N1CCCCCC1 (centres undefined)	47%
Cc1nnc(NC(=O)c2ccc(S(=O)(=O)N(C)Cc3ccccc3)cc2)o1	?
CCc1cccc2nc3c(c([Si](C)(C)C)c12)Cn1c-3cccc1=O	115%
N#C/C(=C1/CCCCCN1)c1nc2ccccc2[nH]1	8%
CCOCC(=O)Nc1c(C(=O)Nc2ccccc2OC)oc2ccccc12	2%
COc1cccc(Cn2c(=O)c(CCc3ccccc3)nc3cnc(N4CCOCC4)nc32)c1	2%
Cc1cccc(OCC(O)CN2CCN(C3CCCCC3)CC2)c1 (centres undefined)	-3%
Cc1ccc(OCC(=O)Nc2ccc(O)c(C(=O)O)c2)cc1C	-11%
COc1cccc(C(=O)SC2=NCCS2)c1	-10%

Source: PubChem BioAssay
